RecA splice inh: Mtb RecA intein splicing inhibitors, primary screen, biochemical, fluorescence, HTS | Protein RecA (Mycobacterium tuberculosis (strain ATCC 25618 / H37Rv)), P9WHJ3 | cell-free RecA intein splicing | inhibition, %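 (about 9 µM by stock and volumes)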 | hit rate 0.75% among 290,000; in the data active means inhibition above about 30%; inconclusive means no clear call, values can overlap the other calls;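 further: 0% = vehicle wells and 100% = reference inhibitor control wells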
Target sequence (P9WHJ3 whole entry, looked up, canonical isoform): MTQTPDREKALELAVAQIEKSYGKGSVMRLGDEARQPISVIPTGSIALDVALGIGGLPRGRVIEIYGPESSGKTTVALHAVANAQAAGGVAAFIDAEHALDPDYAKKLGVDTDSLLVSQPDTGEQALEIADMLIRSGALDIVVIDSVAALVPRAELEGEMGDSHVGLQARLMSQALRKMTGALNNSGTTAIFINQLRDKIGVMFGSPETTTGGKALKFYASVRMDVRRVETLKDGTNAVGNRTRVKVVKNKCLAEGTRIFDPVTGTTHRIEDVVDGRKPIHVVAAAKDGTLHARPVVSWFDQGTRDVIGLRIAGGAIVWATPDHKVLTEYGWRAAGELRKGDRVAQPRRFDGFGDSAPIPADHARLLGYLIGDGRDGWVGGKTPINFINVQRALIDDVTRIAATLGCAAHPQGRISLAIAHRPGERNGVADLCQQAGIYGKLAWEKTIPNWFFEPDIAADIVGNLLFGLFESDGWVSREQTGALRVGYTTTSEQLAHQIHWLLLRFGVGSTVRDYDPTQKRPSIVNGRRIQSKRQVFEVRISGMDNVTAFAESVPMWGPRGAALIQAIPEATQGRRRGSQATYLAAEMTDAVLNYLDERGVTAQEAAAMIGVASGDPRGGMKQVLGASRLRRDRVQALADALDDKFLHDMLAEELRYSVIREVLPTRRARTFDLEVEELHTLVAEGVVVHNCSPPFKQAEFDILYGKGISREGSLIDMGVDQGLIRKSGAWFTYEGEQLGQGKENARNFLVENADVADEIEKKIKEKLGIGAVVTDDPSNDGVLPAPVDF
YopH PTP inh: YopH tyrosine phosphatase inhibitors, primary screen, biochemical, fluorescence Ex485/Em525; YopH tyrosine phosphatase [Yersinia enterocolitica]; inhibition, %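 (about 10 µM by stock and volumes)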; hit rate 0.16% among 140,000; AID 898, 2007;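 active means inhibition of 50% or more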;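 further: controls were vehicle for no effect and minimum signal wells for full effect; inactives centre near -20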
Arbovirus inh: antivirals against arbovirus infection, primary screen, cell-based, full library, 10K replicate subset. inhibition, % at 10 µM. AID 1251, 2008. arbovirus infection cell-based antiviral screen. hit rate 0.37% among 200,000;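 active means inhibition from about 30%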;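 further: bluetongue infection of BSR cells; cell survival read as ATP light after 72 h; 0% = infected wells without compound and 100% = uninfected wells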
Mtb betalactam: beta-lactam sensitization of Mtb H37Rv, H37Rv; inhibition, % at 25 µM; hit rate 0.27% among 330,000; M. tuberculosis H37Rv growth with meropenem, percent inhibition; hits of this screen are not shown here;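 active means about 74% or more and at least 40 points above the plate without the antibiotic, then above 30% in a dose series; inconclusive means first-round hits that could not be retested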;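 further: growth measured after seven days incubation then overnight dye step; 0% = bacteria only wells and 100% = bacteria with antibiotic; twin plates without the antibiotic show which effects depend on it; some results filed as inactive read as strong as hits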
Mtb H37Rv: M. tuberculosis H37Rv growth inhibitors, H37Rv strain (AID 1626) | M. tuberculosis H37Rv growth inhibition; higher % means a stronger effect | one-dose inhibition, % at 10 µM; IC50 in µM for titrated hits | hit rate 0.95% among 220,000;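 active means confirmed in a dose series; inconclusive means inhibition above 80% but not taken into the dose series; inactive means below 80% or under 30% at every dose of the series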;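 further: bacteria incubated seven days before Alamar blue readout; 0% = bacteria only wells and 100% = bacteria with antibiotic wells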
Arbovirus inh repeat: also measured in Arbovirus inh; calls as there; inhibition, %; measured here: 10K subset replicate screen; many hits read low in the repeat;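 first of two repeat runs on a subset; 0% = infected and 100% = uninfected wells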
Numbers without * were called inactive; ? = inconclusive; · = no result given.

SMILES	RecA splice inh	YopH PTP inh	Arbovirus inh	Mtb betalactam	Mtb H37Rv	others
CNS(=O)(=O)c1ccc(NC(=O)C2CC(=O)N(c3ccc(Cl)cc3)C2)cc1 (stereo not drawn)	-0.5	·	28	-6	4%
CCCCN(Cc1ccccc1)C(=O)C1CCN(Cc2sccc2C)CC1	1.5	-12	1	-4	3%
CC(C)C(=O)Nc1cccc(-c2nc3ccccc3c(=O)o2)c1	-1.8	33	-1	96	0%
COc1ccccc1CC(NC(C)=O)C(=O)N1CCN(C(=O)c2cccs2)CC1 (stereo not drawn)	1.0	-4	1	-11	2%
COc1ccc(S(=O)(=O)NCc2ccc(C(=O)NCc3cccnc3)cc2)cc1	0.7	·	1	-5	1%
Cc1ccc(S(=O)(=O)N2CCOCC2)cc1NC(=O)COC(=O)c1ccc2c(c1)OCCO2	0.0	·	12	-9	-4%
CCOC(=O)Nc1sc(C(=O)N(CC)CC)c(C)c1C(=O)OCC	-6.0	-46	1	-1	-10%
CCCCCCC(=O)N(O)C1CC(=O)N(c2ccc(Cl)cc2)C1=O (stereo not drawn)	-2.8	·	·	43	8%
COc1ccc(CNC(=O)Cn2ncn3c(cc4ccccc43)c2=O)cc1	-0.3	·	·	-3	-3%
CCC(=O)OCC(=O)Nc1cc(S(=O)(=O)N(C)C)ccc1Cl	-2.0	·	9	6	16%

The last two entries of the part before are carried over, then new ones follow.
SMILES	RecA splice inh	YopH PTP inh	Arbovirus inh	Mtb betalactam	Mtb H37Rv	others
COc1ccc(CNC(=O)Cn2ncn3c(cc4ccccc43)c2=O)cc1	-0.3	·	·	-3	-3%
CCC(=O)OCC(=O)Nc1cc(S(=O)(=O)N(C)C)ccc1Cl	-2.0	·	9	6	16%
CCNC(=S)N1CCCC(C(N)=O)C1 (stereo not drawn)	-0.5	·	-1	-8	7%
COc1cc(/C=N/Nc2ccc(Cl)cc2)ccc1OC(=O)c1cccs1	·	-5	-42	99	?
Cc1cccc(C)c1NS(=O)(=O)c1cc2c3c(c1)CCN3C(=O)CC2	-0.5	·	·	1	·
Cc1ccc2c(c1)nnn2C1CCN(S(=O)(=O)c2cccc(S(=O)(=O)N(C)C)c2)CC1	0.0	-34	9	-7	-5%
Cn1c(=O)n(CCOc2ccccc2Cl)c2ccccc21	-8.1	-21	10	-5	3%
CCCN1CCC(NC(=O)CC2C(=O)NCCN2Cc2ccccc2C)CC1 (stereo not drawn)	-3.3	·	·	-9	·
Cc1ccc(OCC(=O)Nc2oc(-c3ccccc3)c(-c3ccccc3)c2C#N)cc1	-0.3	-14	·	-5	-3%
COc1ccc(C2Nc3ccccc3C(=O)N2c2ccc(C)cc2)cc1Cn1nc(C)c([N+](=O)[O-])c1C (stereo not drawn)	11	-11	6	17	1%
O=C(Cc1ccccc1)N1CCN(c2ncccn2)CC1	2.5	·	-3	-9	-3%
COc1ccc(N=Cc2c(O)n(C)c(=O)[nH]c2=O)cc1	-1.9	·	·	76	·
Cc1ccc(-c2cc(C(=O)Nc3ccccc3C)c3ccccc3n2)o1	-10	0	5	-2	2%
COc1ccc(OCCOC(=O)c2nc3nccc(C)n3n2)cc1	1.7	·	8	-1	7%
C=CCN1C(=O)/C(=C\c2ccc(OC(=O)c3ccco3)c(OC)c2)SC1=S	-1.5	·	1	1	5%
O=c1c2ccccc2cnn1Cc1nnc(-c2cccs2)o1	-1.0	·	·	-5	·
CCN1CCCC1CNC(=O)Cn1cc2c(n1)CCC(C)C2 (stereo not drawn)	-1.4	-32	-2	-2	-2%	Arbovirus inh repeat=0
O=C(NCCSc1c[nH]c2ccccc12)c1ccco1	12	-21	4	5	-2%	Arbovirus inh repeat=-4
O=C(O)c1ccc2nc(CO)[nH]c2c1	0.7	6	6	-10	-11%
O=C(c1cc2n(n1)C(C(F)(F)F)CC(c1ccco1)N2)N1CCc2ccccc2C1 (stereo not drawn)	0.3	-75	-4	62	6%
CC(=O)c1cccc(NC(=O)/C(=C\c2cccnc2)NC(=O)c2ccco2)c1	-1.2	·	7	-2	-3%
CCOc1cc(-c2nc(C)c(C(C)=O)n2O)ccc1OCC(=O)Nc1ccc(F)cc1	-0.3	·	-1	88	-7%

6 records picked at random from those above:
SMILES	RecA splice inh	YopH PTP inh	Arbovirus inh	Mtb betalactam	Mtb H37Rv	others
Cc1ccc(-c2cc(C(=O)Nc3ccccc3C)c3ccccc3n2)o1	-10	0	5	-2	2%
O=C(c1cc2n(n1)C(C(F)(F)F)CC(c1ccco1)N2)N1CCc2ccccc2C1 (stereo not drawn)	0.3	-75	-4	62	6%
O=C(NCCSc1c[nH]c2ccccc12)c1ccco1	12	-21	4	5	-2%	Arbovirus inh repeat=-4
O=c1c2ccccc2cnn1Cc1nnc(-c2cccs2)o1	-1.0	·	·	-5	·
C=CCN1C(=O)/C(=C\c2ccc(OC(=O)c3ccco3)c(OC)c2)SC1=S	-1.5	·	1	1	5%
COc1ccc(OCCOC(=O)c2nc3nccc(C)n3n2)cc1	1.7	·	8	-1	7%

More entries
SMILES	RecA splice inh	YopH PTP inh	Arbovirus inh	Mtb betalactam	Mtb H37Rv	others
N/C(=N\OC(=O)c1ccco1)c1cccc(Br)c1	3.2	-20	6	74	9%
CC1=CC(C)(C)[N+](C)(C)c2ccc(C)cc21	0.7	·	1	-3	-4%
COC(=O)Cc1cc(=O)n2[nH]c(C(F)(F)F)nc2n1	-1.2	-6	6	7	5%
Cc1ccc(-c2nnc(CCC(=O)NCc3csc(C)n3)o2)s1	-0.9	·	·	-2	-3%
CC(C)CCNC(=O)NC(=O)COC(=O)/C=C/c1cc(Br)ccc1F	-0.8	·	0	-1	-5%
Cc1cc(O)c(C(C)C)cc1NC(=O)c1cccc(Cl)c1	9.2	-25	5	-2	6%
CC(Nc1cc(N2CCN(S(=O)(=O)N(C)C)CC2)ccc1[N+](=O)[O-])c1ccccc1 (stereo not drawn)	0.9	·	0	12	8%
CSCCC(NC(N)=O)C(=O)NCc1ccccc1Cl (stereo not drawn)	-1.0	-44	2	2	5%
CCCCC(CC)C(=O)Nc1cccc(SC)c1 (stereo not drawn)	5.1	·	-9	-3	-11%
CCOC(=O)C1(C)NC(c2ccco2)C2C(=O)N(c3ccc(C)cc3)C(=O)C21 (stereo not drawn)	0.9	-7	3	-7	-2%
Cc1c(-c2ccc(F)cc2)[n+](=O)c2c(n1[O-])CCCCC2	-0.1	1	5	-4	-11%
COc1ccc(/C=C\c2cc(OC)c(OC)cc2CC[N+](C)(C)C)cc1OC	0.4	·	-4	-1	-2%
ONC(=Nc1cccc(C(F)(F)F)c1)c1cccnc1	·	·	·	-5	-3%
CC1CCC(C(C)C)C(OC(=O)CSc2nnc(N)s2)C1 (stereo not drawn)	3.6	-160	6	14	7%
COc1ccc(S(=O)(=O)N2CCCCC2)cc1NC(=S)Nc1cccc(Cl)c1C	3.7	-9	1	0	5%
CCOC(=O)COc1ccc(S(=O)(=O)N2CCN(c3ccccc3)CC2)cc1	6.3	-25	5	11	1%
Cc1nn(C(C)C(=O)c2cccc(Cl)c2)c(C)c1[N+](=O)[O-] (stereo not drawn)	1.0	·	7	-5	6%
CCC(CC)NC(=O)c1ccc(NS(=O)(=O)c2ccc3[nH]c(=O)[nH]c3c2)cc1	-0.8	·	·	-3	·
CCNC(=O)CC1C(=O)N(c2ccc(F)cc2)C(=O)N1Cc1ccc(OC)cc1 (stereo not drawn)	-5.8	-48	8	-2	10%
CCOC(=O)N1CCN(S(=O)(=O)c2ccc(OC)c(C(=O)N3CCCCC3)c2)CC1	4.7	·	·	-1	·
O=C(NCN1C(=O)C2C3C=CC(C3)C2C1=O)Nc1nncs1 (stereo not drawn)	-3.2	11	2	2	-1%
CC(O)Cn1c(N2CCCC2)nc2c1c(=O)n(C)c(=O)n2C (stereo not drawn)	-0.8	·	·	8	·
COc1cc2[nH]c(=O)n(CCC(=O)N3CC=C(c4ccccc4)CC3)c(=O)c2cc1OC	-3.5	-26	-5	-1	2%
CC(C)n1cnc2c(Nc3cccc(Cl)c3)nc(NCCCO)nc21	1.3	·	·	58	-2%
COc1ccc(CNc2n[nH]c(NCc3ccc(OC)c(OC)c3)n2)cc1OC	-0.5	-26	-3	-6	1%
N/C(CSc1nc(-c2ccccc2)c(-c2ccccc2)o1)=N\O	11	-44	-23	10	-7%
CCC(=O)N(c1ccc(C(=O)O)cc1)c1nc(-c2ccc(OC)cc2)c(C)s1	·	·	17	-1	-2%
CCCCCCCCOC(=O)C[N+](C)(C)C/C=C(/C)Cl	-1.4	-21	8	6	9%
CC(C)(CO)Nc1nc(Cl)nc(NC2CCCCC2)n1	1.5	·	·	-8	10%
Cc1ccc2[nH]c(-c3ccccc3)c(CN3CCCC3)c(=O)c2c1	-4.9	·	11	2	16%
CCOc1ccccc1NC(=O)NC1Cc2ccccc2C1	2.0	·	·	0	·
O=C(COc1ccc(Cl)cc1)Nc1ccccc1CO	-0.6	-22	-1	-3	0%
CCN(C=NC1=NN(c2cccc(C(F)(F)F)c2)CC1)CC	-2.2	-4	-14	86	72%
CC(=O)N1CCOc2ccc(S(=O)(=O)N3CCC(C(=O)Nc4ccc(C)cc4C)CC3)cc21	4.6	·	·	-7	·
Cc1ccc(-n2nc(-c3cccs3)cc2C(=O)NCC2CCCO2)c(C)c1 (stereo not drawn)	10	-6	-14	43	-8%
CCCCN(C(=O)Nc1ccc(Cl)cc1)C1CCN(C(C)=O)CC1	-0.1	-3	1	-9	-7%
Cc1ccc(NC(=O)CN(C)C(=O)CCOc2ccccc2C)cc1	-0.9	-8	3	-2	9%
O=C(N/N=C/c1ccc(OC(=O)c2ccccc2)c([N+](=O)[O-])c1)c1ccc(O)cc1	26	-30	-9	1	3%
COc1ccc2nc(SC(C(=O)c3ccccc3)c3ccccc3)nc(C)c2c1 (stereo not drawn)	10	-21	4	3	15%
COc1ccc(CCN2CC(C(=O)NCCc3ccccc3)CC2=O)cc1OC (stereo not drawn)	-0.3	·	0	-4	-2%
Cc1nc2c(-c3ccccc3)c(C)nn2c(SCC(N)=O)c1Cc1ccccc1	0.1	·	·	-2	-4%
COc1ccc([N+](=O)[O-])cc1NC(=O)c1ccccc1SC	-1.2	·	-6	-4	9%
COc1cc(OC)cc(C(=O)N2CCN(S(C)(=O)=O)CC2)c1	2.2	22	0	-8	-11%
COc1ccc(S(=O)(=O)Cc2ccc(C(=O)NCc3ccc(C)cc3)o2)cc1	-0.4	·	·	2	·
CC1CCN(CC(=O)Nc2ccc(Br)cc2[N+](=O)[O-])CC1	4.4	·	2	-4	10%
O=C(N/N=C/c1ccccn1)C(O)c1ccccc1 (stereo not drawn)	-2.4	·	·	-4	-3%
COc1ccc(CCNC(=O)CN2C(=O)c3ccccc3S2(=O)=O)cc1	0.0	-20	-3	-21	-5%
O=C(CN1C(=O)NC2(CCCC2)C1=O)N1CCN(S(=O)(=O)c2ccc(Cl)cc2)CC1	1.0	·	2	-1	-9%
CC(=O)C(=Cc1cn(-c2ccccc2)nc1-c1ccccc1)C(C)=O	1.1	·	-10	9	8%
COc1ccc(C2=NN(C(=O)CSc3nc4ncc(Cl)cc4[nH]3)C(c3ccco3)C2)cc1 (stereo not drawn)	7.2	·	15	2	7%
(next part)
SMILES	RecA splice inh	YopH PTP inh	Arbovirus inh	Mtb betalactam	Mtb H37Rv	others
COc1ccc(NC(=O)CSc2nnc(C)c(=O)n2N)cc1	-2.0	·	·	6	·
COCCNC(=O)c1ccc2c(c1)ncn2-c1ccc(F)c(F)c1	-0.1	-18	-7	-9	-8%
O=C(Cn1cc2c(n1)CCCC2)NCc1cccnc1	-1.0	-30	6	-1	2%	Arbovirus inh repeat=5
O=c1c2ccccc2nc(Cc2ccccc2)n1-c1ccccc1	2.7	·	·	5	·
COc1cccc(NC(=O)N2CCCc3ccccc32)c1	0.5	·	-3	33	15%
CCOC(=O)N1CCN(c2nc(C)c3c(n2)CC(C)CC3=O)CC1 (stereo not drawn)	2.7	-32	1	-2	3%
O=C(Nc1ccccc1C(=O)Nc1ccccc1)c1ccccc1Br	-3.9	·	·	-3	·
CN(CCO)c1cc(Sc2nc3ccccc3s2)c2nonc2c1[N+](=O)[O-]	94*	1	-24	?	64%
COc1cccc(OCCNC(=O)c2cccc(OC)c2)c1	0.3	-18	-4	-12	5%
Cc1ccccc1-n1nnnc1SC1CCOC1=O (stereo not drawn)	·	-37	1	12	·
COc1ccc(NC(=O)CN2C(=O)COc3ccc(S(=O)(=O)N4CCCCC4)cc32)c(OC)c1	-0.9	·	·	-1	·
Cc1ccc(-n2c(C)nc3ccccc3c2=O)c(C)c1	0.7	·	·	0	-8%
O=C(NNC1CC(=O)N(c2ccccc2)C1=O)c1cccnc1 (stereo not drawn)	1.0	·	·	-4	-13%

A portion of the library; rates above refer to the full screens.
